Source: PubChem BioAssay
ugtP null kill: growth inhibition of ugtP-null S. aureus, primary screen, RN4220 ugtP deletion, OD600; hit rate 0.54% among 330,000; 16 h; some inactives read as strong as hits; AID 1259309, 2017; growth inhibition, % (concentration not given with the values);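 active means z-score under -3 and OD600 up to 0.15 on both plates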;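 further: plate controls were untreated wells for no effect and antibiotic for full effect; wells of about 80 µL received 100 nL stock; the first replicate is given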
RN4220 kill: growth inhibition of S. aureus RN4220, primary screen, OD600; inhibition, % (test concentration not listed); hit rate 0.33% among 330,000; 16 h;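 active means z-score of -3 or lower and OD600 up to 0.18 on both plates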;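 further: plate controls were untreated cells for no effect and reference antibiotic for full effect; stock transfer was 100 nL into about 80 µL; one replicate is shown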
PrP UTR inh: inhibition of PrP 5' UTR reporter expression; cell-based PrP 5' UTR mRNA reporter, plate reader; AID 488862, 2010; inhibition, % (test concentration not listed); hit rate 0.35% among 340,000;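 active means every replicate at 50% or more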;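 further: 0 = median of the neutral control wells; tested in H4 reporter cells; numbers are from one replicate; inactives centre near -14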
Mtb hypoxia rep: PubChem AID 1159583; M. tuberculosis hypoxia-regulated fluorescent reporter, fluorescence; fluorescence inhibition, % (test concentration not listed); hit rate 0.1% among 300,000;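 active means 35 to 45% if threefold the growth effect, above 45% if 1.5-fold the growth effect; inactive means the rest, general growth blockers included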;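 further: wells of about 50 µL received 100 nL stock; 0% = vehicle wells and 100% = reference inhibitor wells; whole bacteria with a GFP reporter of the hypoxia response; strong numbers were not always called active; many hits fall short of the cut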
BJeLR lethal: MLPCN primary cell-based screen for lethality selective to Ras in HRASV12 cells; AID 1554, 2009; BJeLR (HRASV12) viability, CellTiter-Glo ATP luminescence, 48 h; reference of the scale not given here; inhibition, % (test concentration not listed); hit rate 0.17% among 300,000;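 active means replicate mean above 50%; inconclusive means above 50% but judged a plate artefact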;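 further: 50 nL library stock added to about 25 µL; numbers are from one replicate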
Bead autofluor: compound fluorescence in toxin protease inhibitor counterscreen; hit rate 3.1% among 360,000; fluorescence intensity (test concentration not listed); compound autofluorescence counterscreen, microsphere flow cytometry; stronger effect = higher value;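 active means at least 3 SD above the mean of all compounds, about 16000 in these data; inconclusive means too few beads counted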;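 further: 100 nL of 1 mM stock went into each well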
Mtb hypoxia rep growth: further read-out of Mtb hypoxia rep, marked with its call; growth inhibition, %; measured here: M. tuberculosis growth (absorbance);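 0% = vehicle and 100% = reference antibiotic; read after six days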
Starred values were filed as active, the others as inactive; ? = inconclusive; / = not tested or not shown. Random draw from the library; 3.9% or so of the library scored in one or more.

SMILES,ugtP null kill,RN4220 kill,PrP UTR inh,Mtb hypoxia rep,Mtb hypoxia rep growth,BJeLR lethal,Bead autofluor
Cc1ccc(N(CC(=O)N/N=C/c2ccc(OC3CSC3)cc2)S(=O)(=O)c2ccccc2)c(C)c1,/,/,-21,/,/,3,2060
CC12CC[C@H]3[C@@H](CCC4(O)C[C@H](O)CCC34C=NNC(=O)c3ccccc3F)C1(O)CCC2C1=CC(=O)OC1 (stereo partly specified),1,3.8,/,-12,5,/,/
Cc1nnc(NC(=O)CSc2nnc(CC(=O)Nc3ccccc3C)n2C)s1,0,3.4,4,5,-4,11,2988
CCOc1ccc(Br)cc1S(=O)(=O)N1CCC(C(=O)O)CC1,3,3.0,-9,5,-3,2,4344
COc1ccc(C(=O)NN=Cc2cc3ccccc3[nH]c2=O)cc1,-70,20,/,18,-4,/,/
FC(F)(F)c1cc(N2CCN(Cc3ccccc3)CC2)c2ccccc2n1,13,0.1,7,0,-1,-1,4671
CCCN(CCC)C(=O)CSc1nc2ccccc2c(=O)n1C1CCCC1,-16,-1.7,4,6,8,-7,9721
COc1ccc(OCc2nn3c(-c4cccc(OC)c4)nnc3s2)cc1,4,1.4,-13,/,/,7,5771
O=C(c1cccnc1)N1N=C(c2cccs2)CC1c1ccc(F)cc1 (stereo unspecified),-2,4.3,-25,4,6,7,5263
O=C(CNC(=O)c1ccc(N2C(=O)c3ccccc3C2=O)cc1)OCC(=O)c1cccc2ccccc12,-2,4.0,-28,-1,6,1,2288
Cc1cccc(NC(=O)NCC2CC2)c1,14,5.1,/,8,15,-4,3641
COc1cccc(C(=O)Nc2cc(NC(=O)c3cccs3)ccc2C)c1OC,-5,4.5,3,15,3,-8,4185
COCCn1c(=NC(=O)/C=C/c2ccccc2Cl)sc2cc(NC(C)=O)ccc21,3,3.4,-29,9,4,-12,2572
O=S(=O)(NCc1cccnc1)c1cccn1-c1ncc(C(F)(F)F)cc1Cl,0,3.3,-22,5,0,8,2631
COc1cc(NC(=O)CCn2c(=S)oc3ccccc32)cc(OC)c1OC,1,0.8,-46,0,-8,10,3003

Next records follow:
SMILES,ugtP null kill,RN4220 kill,PrP UTR inh,Mtb hypoxia rep,Mtb hypoxia rep growth,BJeLR lethal,Bead autofluor
O=C(NCC1CCCO1)c1ccc2c(=O)n(-c3ccccc3)c(=S)[nH]c2c1 (stereo unspecified),-67,6.8,-18,13,1,0,4295
CC(=O)NN=C(C)c1cccc(C(F)(F)F)c1,2,0.0,/,-2,2,/,/
COc1cc(CN2CCN(CCOCCO)CC2)cc(OC)c1OC,2,1.1,-18,5,11,11,10997
COc1ccccc1-n1c(-c2ccccc2)nc2ccccc2c1=O,15,3.0,-7,-5,-1,-2,3674
O=C(Nc1nc(-c2ccc(Oc3ccccc3)cc2)cs1)C1=COCCO1,27,-4.8,-10,6,5,-1,2823
O=C(c1cc(-c2ccco2)nc2ccccc12)N1CCN(Cc2ccccc2)CC1,10,3.1,-25,1,1,/,3479
COc1ccc(C2C3=C(CC(C)(C)CC3=O)OC(N)=C2[N+](=O)[O-])cc1 (stereo unspecified),-1,3.8,-17,-6,-1,3,2699
COc1ccccc1NCC(=O)N/N=C/c1cccnc1,/,/,-24,/,/,0,23032*
Cc1cc2oc(C(=O)Nc3ccc(S(=O)(=O)N4CCCC(C)C4)cc3)cc(=O)c2cc1Cl (stereo unspecified),0,-2.4,-7,4,2,0,2173
O=C(OCC(=O)N1CCCC1)c1ccccc1C(=O)c1ccccc1,8,2.3,-31,6,1,/,3504
O=C1C(C=Nc2ccc(F)cc2)=C(O)c2ccccc21,3,2.3,-102,9,2,2,2659
Cc1c(C(=O)NC(C)c2ccncc2)oc2ccccc12 (stereo unspecified),-12,5.6,-12,7,5,9,21661*
COc1ccccc1-n1ccnc1SCC(=O)NCc1ccco1,4,3.8,-13,-3,3,-2,4438
COc1cc(C=NNC(=O)c2cccnc2)ccc1OS(=O)(=O)c1ccc(F)cc1,2,3.8,/,14,5,/,/
CCn1nnnc1-c1ccc(OC)c(S(=O)(=O)Nc2ccc(OC)cc2)c1,-1,1.1,-15,2,18,-9,7370

Whole records, looked up by structure:
`O=C(c1cc(-c2ccco2)nc2ccccc12)N1CCN(Cc2ccccc2)CC1` is listed as ugtP null kill = 10; RN4220 kill = 3.1; PrP UTR inh = -25; Mtb hypoxia rep = 1; Mtb hypoxia rep growth = 1; BJeLR lethal = /; Bead autofluor = 3479
`COc1ccccc1-n1ccnc1SCC(=O)NCc1ccco1` is listed as ugtP null kill = 4; RN4220 kill = 3.8; PrP UTR inh = -13; Mtb hypoxia rep = -3; Mtb hypoxia rep growth = 3; BJeLR lethal = -2; Bead autofluor = 4438

Additional results follow.
SMILES,ugtP null kill,RN4220 kill,PrP UTR inh,Mtb hypoxia rep,Mtb hypoxia rep growth,BJeLR lethal,Bead autofluor
COc1ccc(C(C)(C)C)cc1NC(=O)C1CCCO1 (stereo unspecified),3,1.4,3,8,13,6,?
COc1ccccc1OCC#CCNC1CCCCC1C (stereo unspecified),-1,4.0,6,-9,-4,9,4147
Cc1ccc(N=Nc2[nH]c3ccccc3c2O)cc1,/,/,-55,/,/,3,9275
O=C1CCCCCCCN1Cc1ccccc1,4,1.5,-10,9,14,-5,6209
COc1ccc(NS(=O)(=O)c2ccc3c(c2)NC(=O)CC(=O)N3)cc1OC,6,0.2,-6,0,-8,3,4638
Cc1ccc(NC(=O)c2cc(NC(=O)CCCC(=O)O)ccc2Cl)cc1Cl,16,4.7,7,/,/,-1,3586
CCOC(=O)C1=C(C)NC(C)=C(C(=O)OCC)C1C(=O)OCC(=O)NC1(C#N)CCCCC1,4,4.6,5,-2,-1,2,/
O=C(CCN1C(=O)c2ccccc2C1=O)N1CCCCCC1,-4,2.2,-13,/,/,-15,4499
CC1=C(C(=O)OCC(C)C)C(c2ccccc2Cl)NC(=O)N1C (stereo unspecified),13,4.8,6,4,6,-1,5849
CCC(C)NCCOc1ccc(C(C)(C)c2ccccc2)cc1 (stereo unspecified),9,-1.8,9,/,/,4,4718
Cc1c(NC(=O)c2ccc(N3C(=O)C4C5C=CC(C5)C4C3=O)cc2)c(=O)n(-c2ccccc2)n1C (stereo unspecified),1,1.8,-21,9,7,18,3681
CC(Sc1nc(=O)cc(N)n1CCc1ccccc1)C(=O)NCc1ccccc1 (stereo unspecified),6,3.9,-3,-10,-4,0,3498
CCOC(=O)C1(CC2CCCCO2)CCN(S(=O)(=O)c2ccccc2)CC1 (stereo unspecified),9,2.9,-18,12,-2,2,3290
CC(=O)c1cc2c(cc1NC(=O)Cn1nc(-c3ccc(F)cc3)ccc1=O)OCO2,12,6.6,-1,-2,-8,-2,4401
CCSCCOC(=O)C1=C(C)NC(=O)NC1c1ccc2c(c1)OCO2 (stereo unspecified),-18,1.7,-6,-8,5,2,5935

Next section:
SMILES,ugtP null kill,RN4220 kill,PrP UTR inh,Mtb hypoxia rep,Mtb hypoxia rep growth,BJeLR lethal,Bead autofluor
O=C1CC(c2ccccc2)=NN1c1nc(-c2ccccc2)cs1,18,8.6,18,2,3,3,5221
Cc1cc(C(=O)Nc2ccncc2)ccc1[N+](=O)[O-],3,1.9,-21,13,3,-12,3865
Cc1ccc(CNC(=O)CCc2nc(-c3cccs3)no2)cc1,5,4.1,-16,7,7,4,6345
O=C(CSc1nnc(Cn2c(=O)sc3ccccc32)n1-c1ccccc1)N1CCCC1,2,1.1,-2,/,/,/,5565
CCOC(=O)c1c(-c2ccccc2)csc1NC(=S)NC,11,9.1,-17,23,25,-2,2505
COC(=O)C(C)N1C(=O)S/C(=C\c2cc(C)n(-c3ccccn3)c2C)C1=O (stereo unspecified),9,1.2,-99,11,16,11,5199
CN1C(=O)/C(=C/c2cccc(Cl)c2)Sc2ccc(C(=O)N3CCCC3)cc21,-14,8.4,/,2,18,-4,/
Cc1cc(NC(=O)CN2CCN(c3ccccn3)CC2)ccc1Br,15,2.4,-22,-20,3,-4,3208
Nc1ccccc1N=Nc1ccccc1N,21,6.3,-38,20,11,-2,3434
COc1ccc(-n2c(SCC(=O)N3CCCC(C)C3)nnc2-c2cccnc2)cc1 (stereo unspecified),10,5.8,-20,4,5,0,4601
CCN(C(=O)CSc1nnc(-c2ccccc2OC)n1N)c1c(N)n(Cc2ccccc2)c(=O)[nH]c1=O,0,0.2,-16,9,7,/,/
Nc1c(C(=O)Nc2ccc3c(c2)OCCO3)nnn1CCc1ccccc1,8,6.5,-52,/,/,9,5669
O=C(CSc1ccc(-c2ccc(Cl)cc2)nn1)Nc1ccc2c(c1)OCCO2,11,-7.4,-28,-1,-1,1,2266
CCn1c(C)c(C(C)=O)c(N2CCCC2)nc1=S,7,5.1,-20,7,6,4,/
C=CCn1c(O)c(C(CC)=NCCc2ccccc2)c(=O)[nH]c1=O,-7,-0.4,-3,-3,12,-4,22909*

Next part.
SMILES,ugtP null kill,RN4220 kill,PrP UTR inh,Mtb hypoxia rep,Mtb hypoxia rep growth,BJeLR lethal,Bead autofluor
Cc1[nH]n(-c2ccccc2)c(=O)c1/C=N/NC(=O)c1ccoc1C,/,/,-13,/,/,23,2196
Cc1nc2cc(NC(=O)Nc3ccc(Br)cc3)ccc2o1,-16,-2.4,-16,9,5,4,2030
O=c1[nH]c(NCc2ccco2)nnc1Cc1ccccc1Cl,-6,-6.5,-33,-8,1,2,4245
COc1ccc(C(=O)c2ccc(Br)cc2)cc1,-3,13,-51,11,10,0,20227*
O=C(CCN1C(=O)c2ccccc2S1(=O)=O)N1CCN(c2ccccc2F)CC1,5,0.5,-21,6,-2,-1,5469
Cc1cc2c3c([nH]c2cc1S(=O)(=O)N1CCC2(CC1)OCCO2)CC(C)(C)CC3=O,2,1.0,-10,-8,-1,3,5087
O=C(O)CNC(=O)c1ccc(OC(F)F)cc1,5,6.2,-18,2,4,1,8216
Cc1ccccc1OCC(=O)Nc1ccc2c(c1)Cc1ccccc1-2,3,4.6,-14,7,4,-3,7926
COc1ccc(C=NNc2ccc(S(=O)(=O)Nc3ccccc3C(=O)O)cc2[N+](=O)[O-])c(OC)c1,78,20,-9,16,11,/,3987
O=C(CSc1ccc(F)cc1)NC(=O)NCc1ccccc1,-2,-1.0,-12,-7,3,11,4182
C/C(=C/C=N/Nc1nc(N2CCCCC2)nc(N2CCCCC2)n1)c1ccccc1,/,/,-28,/,/,-5,8519
c1ccc(-c2csc(N3CCCCCC3)n2)cc1,29,3.0,-46,-4,3,-8,4720
O=C(O)CNC(=S)N(Cc1ccccc1Cl)C1CCCC1,6,6.5,-17,6,-1,-2,4597
CCN(CC(=O)NCc1ccc(Cl)cc1)C(=O)/C=C/c1cc(OC)c(OC)c(OC)c1,8,2.6,-34,0,10,1,3813
Cc1ccccc1NC(=O)Cn1nc(-c2ccccc2)nc1-c1ccccc1,-5,-1.3,-17,0,-1,7,16150*

The results go on:
SMILES,ugtP null kill,RN4220 kill,PrP UTR inh,Mtb hypoxia rep,Mtb hypoxia rep growth,BJeLR lethal,Bead autofluor
Cc1ccc(N(CN2C(=O)C3C4CCC(C4)C3C2=O)C(=O)c2ccco2)cc1 (stereo unspecified),-4,6.1,6,7,4,-2,5131
Cc1ccc2nc(NC(=O)C3CCCN(S(=O)(=O)c4cnc[nH]4)C3)sc2c1 (stereo unspecified),-3,-2.8,-16,/,/,9,5189
Nc1c(S(=O)(=O)c2cccs2)c2nc3ccccc3nc2n1Cc1ccccc1,-9,1.6,-9,6,-2,-3,16336*
CCc1noc(C)c1C(=O)Nc1cc(Cl)ccc1N1CCOCC1,-2,6.6,-14,12,-1,1,5998
CCOc1ccc(N(CC(=O)NCc2ccccc2)C(=O)Cn2nnc(-c3ccc(C)o3)n2)cc1,14,0.7,-24,8,8,-11,3743
CCCOc1ccc(C(=O)NNC(=S)NC(=O)c2cc(-c3ccc(Cl)cc3)nc3ccccc23)cc1,-6,22,-16,/,/,-2,4353
CCOC(=O)C1(Cc2ccccc2)CCN(Cc2csc(C(C)=O)c2)CC1,-2,7.2,-37,18,11,-2,2326
CCCC(=O)NNc1cc(=O)c2c(=O)n(C)c(=O)n(C)c2[nH]1,-7,2.9,-20,7,6,-5,3462
O=C(CSc1nc(C(F)(F)F)cc(=O)[nH]1)Nc1ccc2c(c1)OCCO2,3,3.0,-16,2,1,7,5232
